High-throughput results: PubChem BioAssay, The Scripps Research Institute Molecular Screening Center
LYPLA2 counter – blocks human lysophospholipase 2, a PME1 counter-screen; O95372; recombinant LYPLA2, FP-Rh probe fluorescence polarization; inhibition, % at 5.9 µM; actives 0.38% (n = 320,000); AID 2177;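 active means inhibition above the screen-wide mean plus 3 SD, limit set per campaign, cut at about 26% in these data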;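 further: 0% = LYPLA2 with DMSO and 100% = wells lacking LYPLA2 enzyme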
PAFAH1B3 FP inh – blocks human PAF acetylhydrolase 1B catalytic subunit 3. AID 492972. inhibition, % at 3.39 µM. actives 0.28% (n = 340,000). recombinant PAFAH1B3, FP-rhodamine probe, fluorescence polarization;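 active means inhibition above the screen-wide average of all tested compounds plus 3 SD, cut at about 25% in these data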;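 further: 0% = enzyme with DMSO only and 100% = wells lacking PAFAH1B3 protein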
Target sequence (Q15102 whole entry, looked up): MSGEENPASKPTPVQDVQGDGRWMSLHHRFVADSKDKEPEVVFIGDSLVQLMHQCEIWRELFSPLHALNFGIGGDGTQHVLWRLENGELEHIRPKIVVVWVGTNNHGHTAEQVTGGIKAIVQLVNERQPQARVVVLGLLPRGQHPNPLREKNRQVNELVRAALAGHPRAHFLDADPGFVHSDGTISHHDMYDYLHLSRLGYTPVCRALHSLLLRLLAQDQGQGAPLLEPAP
PAD4 FP inh – inhibitors of human PAD4; inhibition, % at 6.36 µM; recombinant PAD4, RCA probe fluorescence polarization; actives 0.41% (n = 330,000); Q9UM07;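 active means percent inhibition above a cutoff equal to the mean of all tested compounds plus 3 SD, cut at about 15% in these data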;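 further: 0% = PAD4 with RCA probe and DMSO and 100% = probe without PAD4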
PAFAH2 inh – inhibitors of human PAFAH2; Q99487; inhibition, % at 3.39 µM; actives 0.99% (n = 340,000); AID 492956; recombinant PAFAH2, FP-rhodamine activity probe, fluorescence polarization;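 active means inhibition above the mean over all tested compounds plus 3 SD, cut at about 30% in these data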;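 further: inhibitors block probe labeling of enzyme so polarization drops; 0% = enzyme with DMSO and 100% = wells lacking PAFAH2 protein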
LYPLA1 counter – blocks human lysophospholipase 1, a PME1 counter-screen. O75608. recombinant LYPLA1, FP-Rh probe fluorescence polarization. inhibition, % at 5.9 µM. actives 0.16% (n = 320,000). AID 2174;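 active means inhibition above the mean of all tested compounds plus 3 SD, set per campaign, cut at about 14% in these data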;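 further: inhibitors block serine hydrolase probe labeling of LYPLA1 so polarization falls; 0% = enzyme with DMSO and 100% = wells lacking LYPLA1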
* marks the source's active call; other numbers are inactive results. Only part of the results is shown. The share of hits here may be higher or lower than overall.

SMILES	LYPLA2 counter	PAFAH1B3 FP inh	PAD4 FP inh	PAFAH2 inh	LYPLA1 counter
O=C1Nc2c(c(=O)[nH]c(=O)n2-c2ccccc2)C1(Nc1ncccn1)C(F)(F)F (stereo unspecified)	5.2	25.4	-5.1	-11.5	-0.8
CC(N=Cc1ccccc1O)c1ccccc1 (stereo unspecified)	-2.2	-2.1	0.5	1.1	-1.3
O=S(=O)(c1ccccc1)N1CCN(c2cc(-c3ccccc3)nc3ncnn23)CC1	-5.1	4.2	-1.8	1.6	-6.4
Cc1cccc(N(C(=O)c2csnn2)C(C(=O)NC2CCCC2)c2ccncc2)c1 (stereo unspecified)	5.1	2.1	-1.8	-13.8	-0.3
Cc1noc(C)c1CSc1ccccc1C(=O)N(C)CC(=O)Nc1cccc(F)c1	-3.5	5.1	-1.8	-4.9	-2.5

An excerpt from above in order of the PAFAH2 inh value, rising:
compound,PAFAH2 inh
Cc1cccc(N(C(=O)c2csnn2)C(C(=O)NC2CCCC2)c2ccncc2)c1 (stereo unspecified),-13.8
CC(N=Cc1ccccc1O)c1ccccc1 (stereo unspecified),1.1
O=S(=O)(c1ccccc1)N1CCN(c2cc(-c3ccccc3)nc3ncnn23)CC1,1.6

Record cards, as listed above. Values in the order: LYPLA2 counter	PAFAH1B3 FP inh	PAD4 FP inh	PAFAH2 inh	LYPLA1 counter
O=S(=O)(c1ccccc1)N1CCN(c2cc(-c3ccccc3)nc3ncnn23)CC1 in the list: -5.1	4.2	-1.8	1.6	-6.4
Cc1noc(C)c1CSc1ccccc1C(=O)N(C)CC(=O)Nc1cccc(F)c1 in the list: -3.5	5.1	-1.8	-4.9	-2.5
